# Screening data (PubChem)
# AmpC inh no det: Promiscuous and Specific Inhibitors of AmpC Beta-Lactamase (assay without detergent); AID 585, 2007; actives 1.8% (n = 71,000); P00811; Potency, µM (doses to about 28.7 µM), without a hit: top-dose activity change, negative = inhibition; AmpC nitrocefin hydrolysis, absorbance 480 nm, no detergent; potencies from a single point are estimates; active = falling curve, for most hits resting on a single point; inconclusive = weak or doubtful change; inactive = flat or rising curve; also: % of control where 0% means no effect; about half of the hits show no inhibition at the top dose; a quarter of the inactives give rising signals
# Target sequence (P00811 whole entry, looked up): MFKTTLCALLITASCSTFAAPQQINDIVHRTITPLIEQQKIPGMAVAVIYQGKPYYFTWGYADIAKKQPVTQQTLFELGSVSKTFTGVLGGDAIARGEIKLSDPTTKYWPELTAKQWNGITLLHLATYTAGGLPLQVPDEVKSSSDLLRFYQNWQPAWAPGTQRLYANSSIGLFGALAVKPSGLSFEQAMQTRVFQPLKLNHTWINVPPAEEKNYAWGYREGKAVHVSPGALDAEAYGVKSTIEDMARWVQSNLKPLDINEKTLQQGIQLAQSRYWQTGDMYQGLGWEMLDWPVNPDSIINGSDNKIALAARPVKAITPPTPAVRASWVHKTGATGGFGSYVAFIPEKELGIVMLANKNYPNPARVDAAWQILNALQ
#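 AmpC, 20 mM phosphate pH 7.0; 15 min cpd preinc, RT; start with nitrocefin (800 uM stock); A480 kinetic read, 20 s intervals, 4 min. No-enzyme wells = negative control.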
# * = called active by the depositor; ? = inconclusive; [ ] = remark or other dose. Potency is read from the fitted curve at half-maximal effect.
# Start of the data: the first six compounds, ahead of the listing:
SMILES | AmpC inh no det
O=C(CN(C(=O)CCC(=O)Nc1nccs1)c1ccc2c(c1)OCCO2)NCc1ccco1 | 20%
C=Cn1ccnc1P(=S)(c1ccn(C)c1)c1nccn1C=C | 61%
CN(C)c1cccc(C(=O)OCC(=O)NCC2CCCO2)c1 (centres undefined) | 35%
Cn1c(=O)n(CCCOc2ccc(Cl)cc2)c2ccccc21 | 96%
Cc1ccc(CCNC(=O)c2nnn(-c3cc(C)cc(C)c3)c2N)cc1 | 10%
COc1ccc(S(=O)(=O)Nc2nnc(C)s2)cc1 | -5%

# Main list, previewed entries included:
SMILES | AmpC inh no det
O=C(CN(C(=O)CCC(=O)Nc1nccs1)c1ccc2c(c1)OCCO2)NCc1ccco1 | 20%
C=Cn1ccnc1P(=S)(c1ccn(C)c1)c1nccn1C=C | 61%
CN(C)c1cccc(C(=O)OCC(=O)NCC2CCCO2)c1 (centres undefined) | 35%
Cn1c(=O)n(CCCOc2ccc(Cl)cc2)c2ccccc21 | 96%
Cc1ccc(CCNC(=O)c2nnn(-c3cc(C)cc(C)c3)c2N)cc1 | 10%
COc1ccc(S(=O)(=O)Nc2nnc(C)s2)cc1 | -5%
COc1ccc(S(=O)(=O)N2CCC(C(=O)NCc3ccccn3)CC2)cc1Cl | 54%
CC[C@H](C)[C@H](N)C1=N[C@H](C(=O)N[C@@H](CC(C)C)C(=O)N[C@@H](CCC(=O)O)C(=O)N[C@@H](C(=O)N[C@H]2CCCCNC(=O)[C@@H](CC(N)=O)NC(=O)[C@@H](CC(=O)O)NC(=O)[C@@H](Cc3cnc[nH]3)NC(=O)[C@@H](Cc3ccccc3)NC(=O)[C@@H]([C@@H](C)CC)NC(=O)[C@@H](CCCN)NC2=O)[C@@H](C)CC)CS1 | 132%[12.8 µM]
O=C(O)CCC(=O)Nc1ccc(C(=O)OC2CCCCC2)cc1 | -2%
CCOCCCNS(=O)(=O)Cc1ccccc1 | -4%
COc1ccc(S(=O)(=O)Cc2ccc(C(=O)NCCCN(C)c3ccccc3)o2)cc1 | 62%
CCCN(CCC)C[C@@H]1CCCCN1CCNC(=O)N1c2ccccc2C(=O)Nc2cccnc21 | 7%
CCOC(=O)COc1cc2c3c(c(=O)oc2cc1C)CCCC3 | 29%
O=c1[nH]c2ccccc2n1CCCN1CCC(n2c(=O)[nH]c3cc(Cl)ccc32)CC1 | 16%[5.75 µM]
C=CCOC(=O)Nc1c(C(=O)OC)[nH]c2ccccc12 | 5%

# Next structures follow:
SMILES | AmpC inh no det
O=C(NCCN1CCOCC1)c1ccc(CS(=O)(=O)c2ccc(Br)cc2)o1 | 31%
Cc1ccc2cccc(S(=O)(=O)n3nc(C)cc3C)c2n1 | 0%
CCN(CC(=O)Nc1ccc2c(c1)OCCO2)Cc1cc(=O)oc2cc(C)c(C)cc12 | 75%
FC(F)(F)c1ccc(Cl)cc1 | -5%
O=C(Nc1ccc(F)cc1F)c1ccc(COc2c(F)c(F)cc(F)c2F)o1 | -14%
Cn1c(CCN2CCOCC2)nc2cc(NC(=O)COc3ccc(Cl)cc3)ccc21 | -2%
CCCc1cc(=O)[nH]c(/N=C(/NC(=O)C(C)N2C(=O)c3ccccc3C2=O)Nc2ccccc2)n1 (centres undefined) | 27%
CCOC(=O)C1=C(C)NC(C)=C(C(=O)OCC)C1C(=O)OCC(=O)N1CCc2ccccc21 | 106%
CC#CCN(CC#CC)S(=O)(=O)c1ccc(-n2cnnn2)c(OC)c1 | 14%
CCCCCCC1C(C#N)=C(N)OC2=C1C(=O)CCC2 (centres undefined) | -8%
Cc1nc2ccc(S(=O)(=O)NCC(=O)N3CCCCC3)cc2s1 | 4%
CCc1c(C)nc(N)n2c(SCC(=O)N3CCN(c4ccccc4F)CC3)nnc12 | 1%
CCCc1ncc(C[n+]2ccccc2C)c(N)n1 | -11%[12.8 µM]
O=C(Oc1ccccc1)N1CCC2(CC1)CCN(c1cccc(-c3ccccc3)c1)CC2 | 10%
CCCCN1CCc2c([nH]c3ccc(C)cc23)C1=O | 2%

# Other entries:
SMILES | AmpC inh no det
CN1C(=O)CC[C@@H]1c1cccnc1 | 1%
Cc1cc(C(=O)N2CCCC2C(=O)O)c(C)o1 (centres undefined) | -13%
O=C(Nc1nnc(SCc2ccc(Cl)cc2)s1)c1ccco1 | ?
O=C(NCCc1cn2ccsc2n1)c1cccs1 | -6%
CCOc1c(P(=S)(N(C)C)N(C)C)c(C)nn1-c1ccccc1 | 62%
Cc1noc(C)c1-c1ccc2ncnc(Nc3ccccc3)c2c1 | 12%
CCCS(=O)(=O)NCc1ccc2c(c1)cc(C)n2C | 6%
CC1OC(Nc2cccc3ccccc23)C(O)C(O)C1O (centres undefined) | -6%
Cc1cccc(-c2noc(CN(C(=O)CCc3ccccc3)C(C)C)n2)c1 | 72%
CS(=O)(=O)N1CCC(c2noc(-c3ccc(C(F)(F)F)cc3)n2)CC1 | 56%
O=C(Nc1ccccc1)N1CCCC2(CCN(C(=O)c3ccco3)CC2)C1 | 2%
COc1ccc(-n2nc3c(c2NC(=O)C2CC2)CS(=O)C3)cc1 (centres undefined) | -1%
CCn1c(C(=O)N2CCC(C(=O)N3CCC4(CC3)OCCO4)CC2)cc2sccc21 | 94%
Cc1ccc(Cn2c(=O)c3c(nc4n3CCCN4Cc3ccccc3)n(C)c2=O)cc1 | 70%
O=C(Cn1ccc2ccccc2c1=O)N1CCN(Cc2ccc3c(c2)OCO3)CC1 | 29%

# The results go on:
SMILES | AmpC inh no det
Cc1ccc2c(CC(=O)Nc3nc(C)cs3)coc2c1 | ?
CC12CCC(C(=O)O)(c3nc(C#N)c(C#N)nc31)C2(C)C (centres undefined) | -11%
Cc1nn2cc(-c3ccccc3)nc2s1 | 3%
CC12CCCCN1CCCc1c2[nH]c2ccccc12 (centres undefined) | 2%
COc1cccc(NC(=O)CSc2nccn2-c2cccc(OC)c2)c1 | 5%
CN(Cc1nc(-c2cccnc2)no1)S(=O)(=O)c1ccccc1 | 3%
CN(C)c1ccc(/C=[N+](\[O-])C(C)(C)/C=N/O)cc1 | -4%
Nc1nc(SCCOc2ccccc2)n[nH]1 | -1%
O=C1C2C3CCCC3=C3CCCC3C2C(=O)N1c1ccc(Cl)cc1 (centres undefined) | 0%
Cc1nnc(SCC(=O)N2CCN(S(=O)(=O)c3ccc(Cl)cc3)CC2)n(N)c1=O | 33%
COCCn1c(=O)c(-c2ccc(F)cc2)nc2cnc(OC)nc21 | 29%
CC(=O)NCCc1ccc(S(=O)(=O)N2CCCC2)cc1 | 2%
CCOC(=O)c1c(C)[nH]c(C)c1C(=O)Cn1nnc(-c2ccccc2C)n1 | 17%
O=C(COC(=O)c1ccccn1)Nc1c(Cl)cccc1Cl | -14%
Cc1ccc(/C(O)=C2/C(=O)C(=O)N(Cc3cccnc3)C2c2ccccn2)cc1 (centres undefined) | -2%

# Going on with the list:
compound	AmpC inh no det
COc1ccc(N2CCN(C(=O)CSc3ncccc3-c3nc4ccccc4[nH]3)CC2)cc1	44%
c1ccc(-c2noc(-c3cccnc3)n2)cc1	12%
O=C(CCNS(=O)(=O)c1ccc(Br)s1)N1CCCCC1	14%
Cc1cc(=O)oc2cc(OCC3CC(c4ccc(N(C)C)cc4)=NO3)ccc12 (centres undefined)	44%
Cc1c(C(=O)N2CCCCC2)sc(N)c1C#N	7%
CSc1nc(-c2ccccc2)ccc1C(N)=O	11%
CCCC(=O)C1=C(c2ccccc2)C(C#N)(C#N)C(C#N)=C1N	-5%
CC(C)NC(=O)N1CCC2(CC1)CCN(C(=O)c1cc(C(F)(F)F)cc(C(F)(F)F)c1)CC2	107%
COCC(C)n1c(C)cc(C(=O)Cn2c(=O)oc3ccccc32)c1C (centres undefined)	12%
CS(=O)(=O)N1CCCC(C(=O)NC2CCCCCCC2)C1 (centres undefined)	-12%

# More records.
compound	AmpC inh no det
O=S(=O)(c1cc(Cl)ccc1Cl)N1CCN(Cc2ccc3c(c2)OCO3)CC1	7%
O=C(CCSc1ccc(Cl)cc1)N1CCN(c2ncccn2)CC1	63%
C=C(C)COc1ccc(-c2nc(N)ncc2Oc2ccccc2OCC)c(O)c1	-5%
CCOC(=O)CSc1cc(=O)n(C)c2cc(Cl)ccc12	67%
COc1cc2[nH]c(=O)n(CCC(=O)NC3CCN(Cc4ccccc4)CC3)c(=O)c2cc1OC	19%
CCCn1c(=O)c(Cc2ccccc2)c(O)c2ccccc21	-15%
O=C(O)[C@@H]1CCCN1c1ncnc2sc3c(c12)CCC3	-6%
N[C@H](Cc1ccc2oc3cc(=O)c4ccccc4c-3nc2c1)C(=O)O	-6%[5.75 µM]
COc1cccc(Oc2cn[nH]c2-c2ccc(OC)cc2O)c1	-1%
COCCn1c(=O)cnc2cnc(Oc3cccc(Cl)c3)nc21	26%

# Entries shown so far containing two or more sulfur atoms:
compound	AmpC inh no det
COc1ccc(S(=O)(=O)Nc2nnc(C)s2)cc1	-5%
Cc1nc2ccc(S(=O)(=O)NCC(=O)N3CCCCC3)cc2s1	4%
O=C(Nc1nnc(SCc2ccc(Cl)cc2)s1)c1ccco1	?
O=C(NCCc1cn2ccsc2n1)c1cccs1	-6%
Cc1nnc(SCC(=O)N2CCN(S(=O)(=O)c3ccc(Cl)cc3)CC2)n(N)c1=O	33%
O=C(CCNS(=O)(=O)c1ccc(Br)s1)N1CCCCC1	14%

# Following part
compound	AmpC inh no det
CCOC(=O)C1CCCN(Cc2c(Cl)cccc2Cl)C1 (centres undefined)	24%
N#Cc1nc(-c2cccs2)oc1NCc1ccco1	8%
COC(=O)c1ccccc1NC(=O)COC(=O)c1cccnc1	1%
C=CCN(CC=C)CC(O)Cn1c2ccccc2c2ccccc21 (centres undefined)	23%
O=C(NCc1ccc(Cl)cc1)c1noc2c1CCCCC2	10%
COC(=O)c1cc(Br)ccc1OC(=O)c1cccnc1	10%
COc1ccc(Oc2coc3cc(OC(=O)N4CCOCC4)ccc3c2=O)cc1	62%
COC(=O)c1ccc(C(NC(=O)OCc2ccccc2)/C(F)=C/[C@@H](C)C(=O)NCc2ccc(-c3ccccc3)cc2)cc1 (some centres undefined)	-21%
COc1ccc(-c2noc(CCC(=O)Nc3cc(OC)ccc3OC)n2)cc1	54%
CCOc1ccc(N2C(=O)CC(N3CCN(C4CCc5ccccc5C4)CC3)C2=O)cc1 (centres undefined)	50%

# (listing goes on)
compound	AmpC inh no det
CNC(=O)Nc1ccccc1C(=O)NCc1ccccc1	6%
c1ccc(-c2nn3c(C4CCCCC4)nnc3s2)nc1	23%
CC1CN(C(=O)CSc2nnc(-c3ccc(Cl)cc3)n2C)CC(C)O1 (centres undefined)	6%
COc1cccc(-c2nccc(NCc3cnc(C)cn3)n2)c1	24%
O=S(=O)(NCc1ccccc1)c1ccc(S(=O)(=O)N(Cc2ccccn2)Cc2ccco2)cc1	-16%
CCS(=O)(=O)N1CCCC(C(=O)NC2CCCCC2)C1 (centres undefined)	-7%
O=C(c1ccncc1)N1CCN(C(=O)c2ccncc2)CC1	-1%
COC(=O)NCC1(C)CC(NC(=O)OC)CC(C)(C)C1 (centres undefined)	1%
Cc1nnc(SCc2ccccc2C#N)n1-c1ccccc1	27%
Cc1ccccc1N1C(=O)[C@@H]2Cc3ccccc3CN2C1=O	14%

# The listing continues.
compound	AmpC inh no det
CC(OC(=O)CNC(=O)c1ccc2c(c1)OCO2)C(=O)NCCC1=CCCCC1 (centres undefined)	10%
COc1ccccc1CC1(C)NC(=O)N(CC(=O)N2CC(C)OC(C)C2)C1=O (centres undefined)	9%
COC(=O)Cc1[nH]nc2c1C1(CCSCC1)C(C#N)=C(N)O2	-4%
CC(C)Cc1ccc(C(C)C(=O)N2CCOCC2)cc1 (centres undefined)	69%
CC(C(=O)NCC1CCCO1)n1cccc1C(=O)c1ccccc1 (centres undefined)	6%
COc1ccc(S(=O)(=O)N2CC(C)N(S(=O)(=O)c3ccc(OC)cc3)CC2C)cc1 (centres undefined)	-4%
COc1cc(OC)cc(-c2cc3nc(C)c(CCC(=O)O)c(C)n3n2)c1	48%
CC(=O)Nc1ccc(S(=O)(=O)N(C)CC(=O)NC2=NCCS2)cc1	-5%
CCn1nnnc1-c1ccc(OC)c(S(=O)(=O)NCc2ccccc2)c1	4%
Fc1ccccc1CCNc1nnnn1-c1ccccc1	-17%

# (continued)
compound	AmpC inh no det
O=C(c1cc(-c2ccc(Cl)c(Cl)c2)on1)N1CCN(c2ccccc2)CC1	12%
N#Cc1ccc(CN2CCC3(CC2)CCN(C(=O)c2cccc(F)c2)CC3)cc1	111%
CCc1ccc2c(COC(=O)c3n[nH]c4ccccc34)cc(=O)oc2c1	-8%
Clc1ccc(C2=Nn3c(nnc3-c3cccnc3)SC2)s1	8%
Cc1nc(SCC(=O)Nc2ccnc3ccccc23)n[nH]1	-4%
COc1cc(C2N(c3cc(C)on3)C(=O)C3CCCN32)cc(OC)c1OC (centres undefined)	0%
Cc1ccccc1OCc1nnc(SCC(=O)Nc2ccc3c(c2)OCO3)n1C	26%
CCCN(CCC)S(=O)(=O)c1ccc(C(=O)O)cc1	-4%
O=C(CN1C(=O)C2CC=CCC2C1=O)Nc1nc2ccccc2[nH]1 (centres undefined)	-9%
COc1ccc(N2C(=O)CC(NCc3cccc(F)c3)C2=O)cc1 (centres undefined)	14%

# Further results:
compound	AmpC inh no det
O=P1(Nn2cnnc2)C=C(c2ccccc2)OC(c2ccccc2)=C1	54%
Clc1ccccc1Cn1nnc2c(NCC3CC3)ncnc21	-13%
CCOC(=O)n1c(SCC(=O)N(CC)CC)nc2ccccc21	63%
Fc1cc(Br)ccc1Nc1nc2ccccc2n2nnnc12	-11%
CN(C)[C@H]1C(=O)C(C(=O)NCN2CCCC2)=C(O)[C@]2(O)C(=O)C3=C(O)c4c(O)cccc4[C@@](C)(O)[C@H]3C[C@@H]12	0%[12.8 µM]
CCC(CO)NC(=O)c1cccc(S(=O)(=O)N2c3ccccc3CC2C)c1 (centres undefined)	38%

# A portion of the library; count on the stated rates, not on these rows.
